TRPML1 blocker: inhibitors of human TRPML1 channel; TRPML1-inducible cells, Ca2+ dye fluorescence, FDSS; hits give low values; inhibition of EC80 agonist-evoked calcium signal; activity change, negative = inhibition, % (no concentration beside the values); 390,000 compounds, 0.02% hits; AID 624415; in the data active means activity change below about -50%; inconclusive means about -30% to -50%; inactive means above about -30%;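 note: stimulus is agonist 54-4 at its EC80 concentration; % is set by controls: 0 for no effect and ±100 for the full control effect; compound concentration not given in the record; the text of the record puts the active cut at -80%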
Target sequence (Q9GZU1 whole entry, looked up): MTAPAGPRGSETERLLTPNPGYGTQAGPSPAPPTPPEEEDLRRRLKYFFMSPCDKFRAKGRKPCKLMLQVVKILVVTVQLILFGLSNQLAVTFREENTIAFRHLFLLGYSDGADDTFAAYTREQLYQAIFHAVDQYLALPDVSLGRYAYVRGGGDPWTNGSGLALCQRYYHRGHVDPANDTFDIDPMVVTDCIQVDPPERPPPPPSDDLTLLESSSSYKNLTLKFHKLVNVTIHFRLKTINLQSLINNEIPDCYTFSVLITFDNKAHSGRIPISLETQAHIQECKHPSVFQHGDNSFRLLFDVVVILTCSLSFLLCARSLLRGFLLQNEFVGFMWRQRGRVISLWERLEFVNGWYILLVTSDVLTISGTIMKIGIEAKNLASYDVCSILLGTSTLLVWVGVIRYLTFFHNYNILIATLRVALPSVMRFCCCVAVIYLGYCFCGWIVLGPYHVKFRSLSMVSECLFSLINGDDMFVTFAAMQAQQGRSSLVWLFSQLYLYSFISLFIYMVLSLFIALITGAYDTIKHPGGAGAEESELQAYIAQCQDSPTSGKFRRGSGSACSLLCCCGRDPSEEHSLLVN
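TRPML1-DL cells, Tet-induced overnight (~16 h, 37 °C) at 1,500 cells/well, were loaded with Ca8 no-wash dye plus quencher for 45-90 min at room temperature. Compounds were pinned during FDSS kinetic reading; agonist 54-4 at EC80 (4 uM final) then added.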
TRPV1 PAM: human TRPV1 potentiation | Q8NER1 | TRPV1-expressing cells, Fluo-8 calcium influx, capsaicin EC20 potentiation; host cell line not named in the record; control for the full effect not named in the record | potentiation, % at 8.33 µM | 320,000 compounds, 0.02% hits | AID 540277; active means potentiation above 80%; inconclusive means 30% to 80%; inactive means below 30%; note: 0% is about no effect
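TRPV1-expressing cells were cultured overnight at 35.5C and loaded with Fluo-8 calcium dye for 40 to 90 min at room temperature. After a 10 s baseline, compound was added and calcium influx was read kinetically for 3 min (ex 480/em 520 nm).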
Menin MLL FP FL: inhibitors of human menin-MLL interaction, wild-type MLL peptide; Fluorescence polarization, fluorescein-MLL peptide displacement from menin; FP activity change, % at 61.4 µM; 290,000 tested, under 10 active; AID 1766; inconclusive = falling polarisation curve, or a change in total fluorescence; inactive = total fluorescence flat and polarisation flat or rising; no compound was filed as active; the % refers to the polarisation; negative = inhibition;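 note: % of control where 0% means no effect; inhibitors lower the polarisation; unlabelled MLL peptide was the positive control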
ClpP mod: qHTS Assay for Activators of ClpP; ATP-dependent Clp protease proteolytic subunit (Bacillus subtilis (strain 168)), P80244; purified B. subtilis ClpP, FRET peptide cleavage, 20 min; Potency, µM (titrated, usually from 57.5 µM), for the others: at the highest dose activity change, negative = active; 340,000 compounds, 1.9% hits; active = well fitted falling curve with a large enough effect; inconclusive = small, poorly fitted or top-dose-only effect; inactive = no such curve, though single readings can be large or run the other way; note: potency is the fitted concentration of half-maximal effect; the source files actives as falling curves though it sought activators and does not explain the sign; nearly all actives have a fitted effect of over 65% in size; many hits overshoot -100%
Target sequence (P80244 whole entry, looked up): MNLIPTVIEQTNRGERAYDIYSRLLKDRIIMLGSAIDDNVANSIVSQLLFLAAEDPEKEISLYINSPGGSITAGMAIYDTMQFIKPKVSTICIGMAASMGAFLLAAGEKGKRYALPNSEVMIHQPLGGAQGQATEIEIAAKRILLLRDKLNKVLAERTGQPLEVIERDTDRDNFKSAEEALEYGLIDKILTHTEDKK
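Purified B. subtilis ClpP, 10 microg/mL final in Tris/HCl pH8 with KCl, BSA, glycerol and Tween-20, cleaved an Abz/nitrotyrosine-quenched decapeptide. Fluorescence (ex 320, em 430) was read at 0 and 20 min at room temperature. Delta was normalized to 5.8 microM ADEP and DMSO/no-enzyme controls.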
TRPML1 ag: agonists of human TRPML1 channel; Q9GZU1; TRPML1-expressing cells, Ca2+ dye fluorescence, FDSS; host cell line not named in the record; reference of the full effect not given here; activation, % (test concentration not listed); 410,000 compounds, 0.12% hits; AID 624414; in the data active = activation above about 50%; inconclusive = about 30% to 50%; inactive = below about 30%; note: 0% is about no effect; the text of the record puts the active cut at 80%
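Tetracycline-induced TRPML1-DL cells are seeded and incubated overnight before loading with a no-wash Ca2+ dye and quencher. Agonist activity is taken from the 110 s fluorescence read following compound pin-transfer on an FDSS, before EC80 54-4 challenge.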
PINK1 modulator: modulators of PINK1 expression; Potency, µM (highest dose often 76.6 µM), inactives show at the highest dose activation (PINK1 increase), hits mostly activators; 410,000 compounds, 0.2% hits; PINK1 immunofluorescence, high-content cytometry, 24 h; active = well fitted activation curve with a large enough effect; inconclusive = small, poorly fitted or top-dose-only effect; inactive = flat fitted curve, though single readings scatter; cell line not stated here;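 note: potency is the fitted concentration of half-maximal effect; % of control where 0% means no effect; nearly all actives have a fitted effect of over 65% in size; a mitochondrial uncoupler was the plate control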
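A stable cell line was treated with compounds at 5 concentrations for 24 hours, with CCCP as control. PINK1 levels and mitochondrial localization were measured by immunofluorescence with mitochondrial, cell and nuclear markers after fixation, read by laser-scanning cytometry.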
Sfp inh: blocks B. subtilis Sfp PPTase activity; Q9F4F7; 310,000 compounds, 3.5% hits; Potency, µM, inactives show max response, negative = inhibition, most hits filed as inhibitors; Biochemical Sfp PPTase activity, qHTS; AID 1490; active = well fitted inhibition curve with a large enough effect; inconclusive = small, poorly fitted or top-dose-only effect, or another doubt; inactive = no such curve, though single readings can be large or run the other way;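 note: the enzyme is Sfp with the accession as filed and its product quenches rhodamine fluorescence; potency is the fitted concentration of half-maximal effect; 0% = enzyme reaction without inhibitor and -100% = no enzyme wells; top concentration of the series not given in the record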
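Sfp 15 nM + cpd, 15 min RT; start w/ rhodamine-CoA 5 uM, BHQ-2-YbbR 12.5 uM (final); 50 mM Hepes pH 7.6, 10 mM MgCl2, 0.01% NP-40, 0.01% BSA; read 525/598 nm at 0 and 30 min.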
* marks the source's active call; other numbers are inactive results; ? = inconclusive; . = not tested or not shown; & = joins results of further samples; [ ] = another dose, or the depositor's remark.

SMILES | TRPML1 blocker | TRPV1 PAM | Menin MLL FP FL | ClpP mod | TRPML1 ag | PINK1 modulator | Sfp inh
CC(C)(C)Cc1nnc(NC(=O)CN2C(=O)c3ccccc3C2=O)s1 | ? | -2.1 | 0.1 | . | 0.9 | -1.0% | ?
CC1CN(C(=O)COC(=O)c2cc(Cl)ccc2[N+](=O)[O-])CC(C)O1 (stereo not given) | 34.2 | -1.7 | -2.5 | . | 0.7 | -0.2% | 9.3%
Cc1ccccc1NC(=S)N(C)Cc1cccs1 | -6.0 | 1.0 | -4.5 | 0.5% | -0.2 | 1.5% | 13.0%
O=c1[nH]cnc2c1c(-c1ccccc1)cn2-c1ccc(Br)cc1 | 17.1 | 6.5 | 2.9 | -0.8% | 2.1 | 0.3% | -4.3%
COc1ccc2c(c1)OC1=C(C(=O)CCC1)C2C1=C(O)CCCC1=O (stereo not given) | 7.5 | -1.2 | 0.9 | -1.9% | -0.1 | -0.7% | -1.6%
N#Cc1cccc(NC(=O)COC(=O)c2cccc(N3C(=O)c4ccccc4C3=O)c2)c1 | 5.5 | 11.5 | 9.0 | -2.6% | 1.5 | -0.1% | -1.8%
CN(CC(=O)Nc1cccc(F)c1)C(=O)c1cn(-c2ccccc2)nc1-c1ccc(Cl)cc1 | -4.5 | -24.0 | . | -22.2% | 1.2 | ? | .
COc1cc(-c2nnc(SCC(=O)NC(C)C)o2)cc(OC)c1OC | 7.2 | . | . | -0.3% | -0.7 | 0.9% | .
C=C(C)CSc1cc(C)c(C#N)c2nc3ccccc3n12 | 8.1 | 8.1 | 12.1 | . | 0.4 | 20.7% | 31.6µM*
COC(=O)C1CC(O)CN1S(=O)(=O)c1ccc2ccccc2c1 (stereo not given) | -8.3 | -4.7 | . | -4.0% | -0.1 | 2.4% | .
COc1ccccc1C(=O)Nc1ccccc1C(=O)N1CCCC1 | 49.7 | 18.1 | 1.2 | -5.8% | 0.1 | -0.9% | 23.4%
CSc1ccc(S(=O)(=O)N(CC(=O)NCc2ccccn2)c2ccc(C)cc2)cc1 | -6.8 | 3.0 | -4.8 | . | -0.2 | -1.3% | 15.4%
Cn1c(=O)c2c(nc(SCc3nc(N)nc(N4CCCCC4)n3)n2C)n(C)c1=O | -4.5 | 11.5 | -0.4 | 1.5% | -0.1 | -2.7% | 3.2%
COc1cc(OC)cc(C(=O)Nc2ccccc2S(=O)(=O)N2CCCC2OC(C)=O)c1 (stereo not given) | 8.7 | 0.9 | 0.6 | . | -0.4 | 1.4% | 15.4%
Cn1c(CC(=O)NNC(=O)c2ccc(Cl)nc2)nc2ccccc21 | 8.3 | . | . | 0.3% | 0.1 | 0.1% | .
Cc1ccc(NC(=O)c2c(C)oc3ccc(O)c(CN4CCCCCC4)c23)cc1 | 10.2 | . | . | -0.8% | -1.1 | 0.4% | .
COC(=O)c1ccccc1NC(=O)C1CC(c2ccc(F)cc2)=NO1 (stereo not given) | -0.1 | -2.9 | 3.6 | ? | 2.5 | 4.2%[38.3 µM] | 2.2%
CCn1cnc2sc(C)c(C)c2c1=O | . | 4.2 | 3.3 | . | . | . | 19.9%
COc1ccc(CCNC(=O)c2cc(-c3ccc(C)c(C)c3O)n[nH]2)cc1OC | -14.0 | -14.9 | 5.4 | -4.8% | 1.8 | -1.9% | -13.2%
O=C(CCCN1C(=O)C(=Cc2ccc3c(c2)OCO3)SC1=S)Nc1ccc(C(=O)O)c(O)c1 | 4.5 | . | . | 1.7% | 0.2 | 1.3% | .
CC(NS(=O)(=O)c1ccc2c(c1)C(=O)c1cc(S(=O)(=O)NC(C)C(=O)O)ccc1-2)C(=O)O (stereo not given) | -5.5 | -0.6 | 0.1 | . | 0.7 | 0.2% | -3.6%
COc1ccc(NC(=O)c2ccc3c(c2)S(=O)(=O)c2ccccc2C3=O)cc1 | 20.7 | . | . | 3.0% | -0.7 | 1.6% | .
CCCC(=O)Nc1ncnc2c1ncn2[C@@H]1O[C@@H]2COP(=O)(O)O[C@H]2[C@H]1OC(=O)CCC | 34.3&-2.3 | -8.7 | -2.8&-1.1&-4.3 | 1.2%&-11.8% | -0.2&-0.4 | 0.7%&2.8% | 3.8%&-5.4%&-9.2%
Cc1ccc(CN2C(=O)C3(SCC(=O)N3c3ccc(C)c(C)c3)c3ccccc32)cc1 (stereo not given) | -13.7 | . | . | -8.3% | 4.0 | 1.8% | .
COc1ccc(C(=O)NCCS(=O)(=O)N2CCOCC2)cc1 | 0.8 | 0.9 | . | -0.9% | 0.6 | 1.5% | .

Ordered by value in PINK1 modulator (high to low): three of the compounds above
smiles	PINK1 modulator
CC(NS(=O)(=O)c1ccc2c(c1)C(=O)c1cc(S(=O)(=O)NC(C)C(=O)O)ccc1-2)C(=O)O (stereo not given)	0.2%
Cn1c(CC(=O)NNC(=O)c2ccc(Cl)nc2)nc2ccccc21	0.1%
CSc1ccc(S(=O)(=O)N(CC(=O)NCc2ccccn2)c2ccc(C)cc2)cc1	-1.3%

(continued)
SMILES | TRPML1 blocker | TRPV1 PAM | Menin MLL FP FL | ClpP mod | TRPML1 ag | PINK1 modulator | Sfp inh
CCN(C[C@H]1N[C@@](Cc2ccccc2)(C(=O)OC)[C@H]2C(=O)N(Cc3ccccc3)C(=O)[C@@H]12)S(=O)(=O)c1ccc(C(F)(F)F)cc1 | -3.2 | . | . | 0.5% | -0.3 | 1.6% | .
Cc1ccc(SCCC(=O)N2CCN(S(=O)(=O)c3ccccc3)CC2)cc1 | 3.7 | -7.0 | . | 1.5% | 0.3 | -2.3% | .
COc1ccc(C)cc1NC(=O)COCc1cc(-c2cccs2)on1 | 19.9 | . | . | -1.3% | 1.3 | 0.4% | .
CSC1=NCCN1C(=O)c1c(-c2c(F)cccc2Cl)noc1C | -3.8 | -0.7 | 2.8 | . | 0.0 | 0.6% | 1.1%
COC(=O)c1cc(C)nc(Nc2nc(C(N)Cc3ccc(F)cc3)cs2)n1 (stereo not given) | . | . | . | -2.8% | -0.4 | 2.7% | .
CN(C)Cc1c(O)ccc2ccccc12 | . | 16.7 | 2.0 | 3.7% | . | -0.4% | 6.0%
O=S(=O)(c1ccccc1)N1CCN(C(=S)NC2CCCC2)CC1 | 2.6 | -8.6 | . | -2.2% | -0.2 | 0.9% | 2.2%
CC1CCc2c(ccc3ccccc23)C1=O (stereo not given) | -5.7 | . | . | . | -0.4 | 1.6% | .
O=C1/C(=C\c2cccnc2)SC(=S)N1c1ccc(F)cc1 | 17.8 | -2.8 | 3.1 | 1.9% | 0.1 | 7.8% | 16.8%
CC(=O)Nc1ccc(NS(=O)(=O)c2ccc(CN3C(=O)c4cccnc4C3=O)cc2)cc1 | -7.9 | 3.8 | 1.8 | 1.3% | -1.2 | -0.6% | 10.8%
CC(C)CN(C(=O)/C=C/c1nc2ccccc2s1)C1CCS(=O)(=O)C1 (stereo not given) | 7.8 | -1.0 | . | ? | 0.1 | -2.2% | .
O=C(CSc1nnc(CNc2ccc(F)cc2)n1Cc1ccco1)N1CCOCC1 | -1.6 | 3.4 | -0.2 | -1.0% | 1.8 | -2.6% | -10.2%
CCC(Cn1nnc2ccccc2c1=O)NC(=O)Nc1ccccc1OC (stereo not given) | -11.6 | . | . | 0.2% | -0.6 | -0.4% | .
CC(C)CN1CC[C@@]2(CCCN(C(=O)c3csnn3)C2)C1 | . | . | 3.8 | . | . | -0.2% | -25.2%
CCOCc1c(C(=O)N2CCN(Cc3ccc(Br)s3)CC2)oc2ccccc12 | 46.5 | -19.8 | . | -1.6% | 5.5 | 1.3% | .
CCN(CC)c1ccc(S(=O)(=O)N2CCOCC2)cc1NC(=O)COC(=O)/C=C/c1ccc(C)o1 | 6.6 | 8.6 | . | -1.7% | 0.8 | 3.9% | .
Cc1c(C)[n+](=O)c2c(n1[O-])C(Br)CCC2Br (stereo not given) | -1.9 | -4.1 | -1.0 | . | 1.3 | -0.2% | -12.9%
COc1ccc(N2CCN(Cc3oc(CO)cc(=O)c3O)CC2)cc1 | -7.9 | -0.9 | 1.6 | -3.2% | -0.1 | -0.8% | 6.8%
CC(CN1C(C)CCCC1C)OC(=O)c1ccccc1Cl (stereo not given) | 10.9 | 1.0 | 1.3 | -1.7% | 0.3 | 2.4% | 18.2%
CCCCN1C(=O)/C(=C2/Sc3ccccc3N2C)S/C1=N\c1ncn[nH]1 | 0.3 | -11.2 | -1.2 | -0.3% | 0.2 | 8.2% | 14.6%
O=c1cc(O)n(Cc2ccc(F)cc2)c(=O)[nH]1 | 8.7 | -5.6 | 14.0 | -2.5% | 0.3 | 2.2% | -5.2%
CCCNC(=O)c1cc2c(c(-c3cccc(-c4ccc(C#N)cc4)c3)n1)[C@@H](CCO)N(C(=O)CC)C2 | . | . | . | -7.0% | -0.3 | 0.4% | .
Cc1ccc(CNC(=O)C(C(C)C)N2Cc3ccccc3C2=O)cc1 (stereo not given) | 14.0 | . | . | 2.4% | 0.3 | 10.5% | .
C#Cc1ccc([C@@H]2C=C(C(=O)O)O[C@H](OCC)[C@H]2CCCO)cc1 | -12.9 | . | . | -0.6% | -0.5 | 2.5% | .
Cc1onc(-c2ccccc2Cl)c1C(=O)OCN1C(=O)c2ccccc2C1=O | 1.3 | -15.9 | 5.5 | 2.1% | -1.6 | -1.7% | -12.9%
CC(C)OC(=O)CCc1nc2ccccc2[nH]c1=O | 10.6 | -22.3 | 10.0 | ? | -0.6 | -1.9% | 10.9%
CCCCCn1c(SCCN2CCOCC2)nc2c1c(=O)[nH]c(=O)n2C | -2.0 | 9.0 | 2.0 | 1.4% | 0.0 | 3.7% | 50.1µM*

Quoted from the listing:
Under Sfp inh, CN(C)Cc1c(O)ccc2ccccc12 is entered as 6.0%
Under TRPML1 blocker, CCOCc1c(C(=O)N2CCN(Cc3ccc(Br)s3)CC2)oc2ccccc12 is entered as 46.5
Under TRPV1 PAM, Cn1c(=O)c2c(nc(SCc3nc(N)nc(N4CCCCC4)n3)n2C)n(C)c1=O is entered as 11.5

High-throughput results deposited in PubChem by National Center for Advancing Translational Sciences (NCATS).
